TRPML1 agonist: agonists of human TRPML1 channel; Q9GZU1; AID 624414; activation, % (test concentration not listed); TRPML1-expressing cells, Ca2+ dye fluorescence, FDSS; host cell line not named in the record; reference of the full effect not given here; 0.12% of 410,000 active; in the data active = activation above about 50%; inconclusive = about 30% to 50%; inactive = below about 30%; also: 0% is about no effect; the text of the record puts the active cut at 80%
Target sequence (Q9GZU1 whole entry, looked up): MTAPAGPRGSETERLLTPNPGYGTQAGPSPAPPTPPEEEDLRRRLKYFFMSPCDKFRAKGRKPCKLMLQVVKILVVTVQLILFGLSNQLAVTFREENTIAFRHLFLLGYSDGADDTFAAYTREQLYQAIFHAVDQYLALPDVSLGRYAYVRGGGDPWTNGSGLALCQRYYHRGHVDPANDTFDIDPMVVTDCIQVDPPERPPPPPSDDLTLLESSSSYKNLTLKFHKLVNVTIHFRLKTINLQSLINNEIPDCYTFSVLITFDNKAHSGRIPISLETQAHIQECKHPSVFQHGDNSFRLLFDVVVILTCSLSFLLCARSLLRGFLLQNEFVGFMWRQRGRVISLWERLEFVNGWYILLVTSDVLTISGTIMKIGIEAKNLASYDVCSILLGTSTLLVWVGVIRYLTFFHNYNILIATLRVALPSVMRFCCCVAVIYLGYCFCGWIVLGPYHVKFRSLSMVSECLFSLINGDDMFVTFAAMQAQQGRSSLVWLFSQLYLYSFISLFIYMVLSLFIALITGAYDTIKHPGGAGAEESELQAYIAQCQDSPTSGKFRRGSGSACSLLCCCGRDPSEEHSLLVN
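Kinetic FDSS Ca2+ read in Tet-induced TRPML1-DL cells (ABD Ca8 dye plus quencher, 45-90 min RT loading): baseline, then compound, then 110 s agonist window; EC80 agonist 54-4 at 4uM final added afterwards for a 110 s antagonist window.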
Six1-Eya2 blk: inhibitors of human Six1/Eya2 interaction. Q15475+O00167. AlphaScreen GST-Six1/His-Eya2 binding, biochemical; hits give low values; control for the full effect not named in the record. activity change, % (no concentration beside the values). 0.56% of 360,000 active. AID 651725; in the data active = activity change below about -65%; inconclusive = about -30% to -65%; inactive = above about -30%; also: % is scaled to controls: 0 for no effect and ±100 for the full control effect; compound concentration not given in the record
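Homogeneous AlphaScreen proximity assay pairing GST-Six1 with His-tagged Eya2 (added as 5X mix: 250 nM and 500 nM) in 50 mM Tris pH 8.0, 300 mM NaCl, 1 mM TCEP. Glutathione donor and nickel acceptor beads; 1 h, 37 °C, dark.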
D2 PAM: potentiates the human D2 dopamine receptor allosterically. P14416. AID 624464. DiscoveRx D2 beta-arrestin cells, luminescence, 90 min; 100% = 57 uM dopamine signal. 0.23% of 360,000 active. potentiation, % (test concentration not listed); active = potentiation of 50% or more; inconclusive = 30% to 50%; inactive = 30% or less;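 also: compound concentration not given in the record; tested on top of an EC20 dose of dopamine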
Target sequence (P14416 whole entry, looked up): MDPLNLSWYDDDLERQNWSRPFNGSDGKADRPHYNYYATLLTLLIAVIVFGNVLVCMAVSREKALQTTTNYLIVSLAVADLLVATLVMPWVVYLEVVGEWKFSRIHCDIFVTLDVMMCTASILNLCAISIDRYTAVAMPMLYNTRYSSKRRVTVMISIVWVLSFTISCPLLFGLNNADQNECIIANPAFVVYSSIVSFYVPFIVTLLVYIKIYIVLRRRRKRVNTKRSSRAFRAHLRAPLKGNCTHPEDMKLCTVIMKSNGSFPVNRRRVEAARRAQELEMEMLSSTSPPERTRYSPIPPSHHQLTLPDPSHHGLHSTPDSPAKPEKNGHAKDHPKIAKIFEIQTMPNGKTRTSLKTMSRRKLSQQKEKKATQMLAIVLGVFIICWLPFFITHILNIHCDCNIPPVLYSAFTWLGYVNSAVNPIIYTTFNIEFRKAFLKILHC
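PathHunter D2 cells, attached overnight at 37 deg C, received compound in DMSO plus dopamine at EC20 (50 nM final) for 90 min at 37 deg C. Beta-arrestin recruitment was read as luminescence after 1 h with detection reagent at ambient temperature.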
TRPML1 blocker: human mucolipin-1 channel inhibition. Q9GZU1. 0.02% of 390,000 active. activity change, negative = inhibition, % (no concentration beside the values). TRPML1-inducible cells, Ca2+ dye fluorescence, FDSS; hits give low values; inhibition of EC80 agonist-evoked calcium signal; in the data active means activity change below about -50%; inconclusive means about -30% to -50%; inactive means above about -30%;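 also: stimulus is agonist 54-4 at its EC80 concentration; % is scaled to controls: 0 for no effect and ±100 for the full control effect; compound concentration not given in the record; the text of the record puts the active cut at -80%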
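TRPML1-DL cells, Tet-induced overnight (~16 h, 37 °C) at 1,500 cells/well, were loaded with Ca8 no-wash dye plus quencher for 45-90 min at room temperature. Compounds were pinned during FDSS kinetic reading; agonist 54-4 at EC80 (4 uM final) then added.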
CtBP-E1A blk: blocks the CtBP interaction with E1A; AlphaScreen GST-E1A/His-CtBP binding, 1536-well; hits give low values; control for the full effect not named in the record; activity change, % (concentration not given with the values); 0.49% of 340,000 active; in the data active means activity change below about -65%; inconclusive means about -30% to -65%; inactive means above about -30%; also: % is scaled to controls: 0 for no effect and ±100 for the full control effect
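Homogeneous bead-based format: GST-tagged E1A captured on glutathione donor beads, His-tagged CtBP on nickel acceptor beads; compounds precede bead addition by 2 h at 37 °C.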
TRPV1 PAM: potentiators of human vanilloid receptor 1 (TRPV1). AID 540277. TRPV1-expressing cells, Fluo-8 calcium influx, capsaicin EC20 potentiation; host cell line not named in the record; control for the full effect not named in the record. Q8NER1. potentiation, % at 8.33 µM. 0.02% of 320,000 active; active means potentiation above 80%; inconclusive means 30% to 80%; inactive means below 30%; also: 0% is about no effect
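Cells expressing TRPV1 were dye-loaded with Fluo-8 and read kinetically: 10 s baseline, 3 min after compound (agonist portion), then 2 min after EC20 capsaicin (allosteric enhancer portion). Calcium-bound dye fluorescence at 480/520 nm.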
Active calls of the source: *; ? = inconclusive; . = not tested or not shown; & = joins results of further samples.

SMILES	TRPML1 agonist	Six1-Eya2 blk	D2 PAM	TRPML1 blocker	CtBP-E1A blk	TRPV1 PAM
Nc1ccc(N=Nc2ccccc2Cl)c(N)n1	0.7	?	-19	-18	.	7
O=C1OCC2=C1C(c1ccc3c(c1)OCO3)c1cc3c(cc1O2)OCO3 (configuration not stated)	0.2	1	-18	4	3	.
O=c1[nH]c(=O)c2nnc(N/N=C\c3ccc(O)cc3)nc2[nH]1	-0.7	-75*	-2	-5	-65*	3
O=C(COc1ccc(Cl)cc1Br)NC(=O)NC1CCCC1	3.6	-3	-23	40	14	-8
COc1ccc(C(C)=O)cc1COc1ccc(Cl)cc1Cl	2.5	-3	-3	17	-6	-2
CCOC(=O)c1c(C)[nH]c(C(=O)OCC(=O)NCc2ccco2)c1C	0.5	-5	-15	-7	-1	.
O=C(c1ccc(=O)[nH]c1)N1CCN(S(=O)(=O)c2ccc(Cl)cc2)CC1	0.5	22	-1	2	24	1
CN(C)C(=O)CN(c1ccc2c(c1)OCO2)S(C)(=O)=O	3.9	4	0	39	11	21
CCc1nc2ccc(C(=O)NCCc3ccccn3)cn2c1N(C)CCC(C)C	-0.3	-5	-20	4	-1	.
CC(=O)Nc1ccccc1OCC(=O)NC(C)c1ccccc1 (configuration not stated)	-0.2	1	-6	18	.	-3
CCn1c(=O)cc(OCC(=O)N(C)C2CCCCC2)c2ccccc21	-0.2	0	-8	5	0	3
CN(CC(=O)Nc1cccc(F)c1)C(=O)CC1CC2CCC1C2 (configuration not stated)	1.5	5	-12	-2	5	-24
Cc1cccc(CSc2ccc3nnc(-c4ccccn4)n3n2)c1	-0.1	?	8	28	2	-24
CCN1CCN(C(=O)C2CCCN(S(=O)(=O)c3ccc(OC)c(OC)c3)C2)CC1 (configuration not stated)	0.2	6	-6	-16	1	-2
COc1ccc(-n2nc(C(=O)NCC(=O)N3CCCCCC3)c3ccccc3c2=O)cc1	-0.2	-3	-2	-6	13	8
COc1ccc(-c2cc(C)no2)cc1S(=O)(=O)N1CCN(c2ccccc2F)CC1	-0.9&0.6	-6	2	-4&13	-8	-3
COc1ccc(OC)c(S(=O)(=O)N2CCCC(C(=O)NCc3cccnc3)C2)c1 (configuration not stated)	0.3	1	-3	-6	2	-3
COc1ccc(N(CC(=O)NCc2ccncc2)S(=O)(=O)c2ccccc2[N+](=O)[O-])c(OC)c1	-0.4	3	0	4	9	-1
CC(OC(=O)c1nc(Cl)ccc1Cl)C(=O)Nc1ccc2c(c1)OCCO2 (configuration not stated)	-0.2	6	-69	-6	4	?
N#CC1=C(N)OC2=C(C(=O)CCC2)C12C(=O)N1CCCc3cccc2c31 (configuration not stated)	0.7	5	-10	10	3	5
CCOc1cccc(-c2nnc(SCC(=O)Nc3cc(C)ccc3OC)n2N)c1	2.0	2	-22	8	-3	4
CNc1oc(-c2ccc(F)cc2)nc1S(=O)(=O)c1ccccc1	-0.4	5	-2	-6	1	20
O=C(N[C@@H](Cc1ccccc1)C(=O)N1CCN(S(=O)(=O)c2cccc(F)c2)CC1)c1ccco1	0.0	8	-2	-6	1	-15
Cc1nc(Cl)sc1C(=O)Nc1cccc(Cl)c1C	-0.3	5	-13	9	-3	-1
O=C(O)c1ccc(S(=O)(=O)Nc2ccc(F)c(Cl)c2)cc1	-0.2	-2	-9	15	-5	3
SMILES	TRPML1 agonist	Six1-Eya2 blk	D2 PAM	TRPML1 blocker	CtBP-E1A blk	TRPV1 PAM
O=CN1CCN(C2CC(=O)N(c3ccc4c(c3)OCO4)C2=O)CC1 (configuration not stated)	-0.7	-3	-14	0	3	-7
CCOC(=O)N/N=C\c1ccccc1OC/C=C/c1ccccc1	0.9	-1	-13	6	3	7
CCC(C)c1ccc(N(C(=O)c2ccco2)C(C(=O)NC2CCCC2)c2cccnc2)cc1 (configuration not stated)	1.1	-1	-1	-6	-10	-1
CC1=CC(C)(C)n2c(O)c(N=N)c3cc(C)cc1c32	1.7	?	-4	-15	-5	7
Cc1cc(NC(=O)C2CCN(S(=O)(=O)c3cnc[nH]3)CC2)ccc1Br	-0.3	-3	-23	0	-1	-5
COc1cc(/C=C2/C(=O)N(c3ccc([N+](=O)[O-])cc3)N=C2N2CCOCC2)ccc1O	.	-4	-14	.	1	.
Cn1c(NCC(O)CO)nc2c1c(=O)n(Cc1ccc(Cl)c(Cl)c1)c(=O)n2C (configuration not stated)	-0.4	-28	-4	-8	-23	-6
CCCC(C)C(=O)Nc1nc(C)c(-c2csc(Nc3cc(OC)ccc3OC)n2)s1 (configuration not stated)	0.4	-24	-16	?	-9	3
CC(O)CSc1nc2c(c(=O)[nH]c(=O)n2C)n1Cc1ccccc1Cl (configuration not stated)	-0.6	6	-3	-4	8	3
NC(=O)c1ccccc1NCC(=O)c1ccc(Cl)cc1	-0.5	0	-29	18	5	9
Cc1nc2sc(C(=O)Nc3ccccc3)c(N)c2c(C)c1[N+](=O)[O-]	-0.3	-6	-7	-11	.	-11
CCOc1cccc(-c2c(C(=O)N/N=C/c3ccoc3)nnn2-c2nonc2N)c1	-0.7	-2	-5	11	-2	-6
Cc1[nH]c2ccccc2c1C(=O)NS(=O)(=O)Nc1ccc(Cl)cc1	-0.4	5	-4	-1	2	?
Cn1c2ccc(F)cc2c2nnc(SCC(=O)Nc3cccc(O)c3)nc21	1.6	-28	4	-14	?	12
O=C(COC(=O)/C=C/c1ccccc1)NCCC1=CCCCC1	-0.7	-1	-1	0	.	-5
Cc1c(F)cccc1NC(=O)CCC(=O)O	0.0	2	-11	15	-2	2
CC1=C(C(=O)OC2CCCCC2)C(c2ccc(C)o2)C2=C(CC(C)(C)CC2=O)N1 (configuration not stated)	0.0	-4	-7	-4	1	-4
CCCCC(=O)NCc1ccc(Cl)cc1	0.5	5	-6	-3	-5	-18
CCOC(=O)C1CCN(S(=O)(=O)c2c(C)noc2C)CC1	-0.4	3	-7	-16	0	2
CN(CCc1ccccn1)S(=O)(=O)c1ccc2c3c(cccc13)C(=O)N2	1.3	2	-6	-10	-2	-4
Cc1ccccc1-n1cnc2c(sc3nc(N4CCOCC4)c4c(c32)CCCC4)c1=O	0.6	-15	-4	-7	1	?
CC(=O)OC(C)C(=O)NS(=O)(=O)c1ccc(C)cc1 (configuration not stated)	0.1	5	2	-3	-1	?
O=C1CN(Cc2cc(=O)oc3cc4c(cc23)CCC4)CCN1	0.4	0	-4	-3	6	-1
CCN(CC)c1ccc(/C=N/NC(=O)c2ccc([N+](=O)[O-])cc2)cc1	0.9	0	-4	9	.	-6
CN(CCc1ccccn1)C(=O)CC1C(=O)NCCN1Cc1ccc(-c2ccccc2)cc1 (configuration not stated)	-1.0	0	3	15	22	7

The closing 3 entries of the part before open the next one.
SMILES	TRPML1 agonist	Six1-Eya2 blk	D2 PAM	TRPML1 blocker	CtBP-E1A blk	TRPV1 PAM
O=C1CN(Cc2cc(=O)oc3cc4c(cc23)CCC4)CCN1	0.4	0	-4	-3	6	-1
CCN(CC)c1ccc(/C=N/NC(=O)c2ccc([N+](=O)[O-])cc2)cc1	0.9	0	-4	9	.	-6
CN(CCc1ccccn1)C(=O)CC1C(=O)NCCN1Cc1ccc(-c2ccccc2)cc1 (configuration not stated)	-1.0	0	3	15	22	7
Cc1ccc(C(=O)N2CCN(C3CCCCC3)CC2)s1	0.3	-13	-12	-6	-7	-11
COc1cc2c(cc1OC)C(c1ccccc1C)CC(=O)N2 (configuration not stated)	0.4	-7	2	19	-1	-13
O=C1CC(N2CCOCC2)C(=O)N1c1ccc(Cl)cc1 (configuration not stated)	.	-1	-4	.	0	4
O=S(=O)(c1ccc(OCC(O)CN2CCCCC2)cc1)N1CCOCC1 (configuration not stated)	-0.1	-1	-6	-10	4	-1
Cc1[nH]c(C)c(S(=O)(=O)N2CCc3ccccc32)c1C(=O)N1CCCCC1	-0.7	0	-1	20	4	17
NC(=O)c1cc(-c2ccccc2)nc(N2CCOCC2)n1	3.1	-21	-13	1	-21	-1
c1ccc(CNn2c(N3CCOCC3)nc3ccccc32)cc1	1.0	9	0	0	-3	-29
COc1cccc(Cn2cnc3c(NS(=O)(=O)c4cc(Cl)ccc4Cl)c(C)c(C)cc32)c1	2.0	-9	22	39	-10	18
COc1cccc(NC(=S)/C(=C(\[O-])c2cc(C)n(-c3ccccc3F)c2C)[n+]2ccc(N(C)C)cc2)c1	0.1	-18	-5	-9	-10	7
Cc1ccnc(NC(=O)CCC(=O)N(CC(=O)NCCc2ccccc2)c2ccc(F)cc2)c1	0.5	0	-5	11	-3	1
O=C(COc1ccc(Br)cc1F)NCC1(N2CCCCC2)CCCCC1	-1.2	2	-1	-15	5	.
CNc1ccc(S(=O)(=O)NCC(=O)OCC(=O)Nc2cccc(Cl)c2Cl)cc1[N+](=O)[O-]	2.1	0	-16	-9	-9	5
O=C(NCc1cccc(Cl)c1)c1cccc(C(F)(F)F)c1	5.1	16	-5	22	7	-12
O=C(C1=C[C@H](c2csc3ccccc23)C[C@H](OCCCCO)O1)N1CCN(Cc2ccccc2)CC1	0.2	-11	-14	10	-5	-9
O=C(NNS(=O)(=O)c1ccccc1[N+](=O)[O-])c1ccccc1Cl	1.4	-1	1	5	.	3
COc1ccc(CNC(=O)c2csnn2)cc1	0.3	3	-5	-4	5	3
COc1ccc(/C=C(\NC(=O)c2ccc(C)cc2)C(=O)NCCN2CCOCC2)cc1	0.2	9	-2	2	10	-21
COc1cccc(NC(=O)C2(C)CCN2C(=O)CCc2ccc(Cl)cc2Cl)c1 (configuration not stated)	-0.4	1	-11	53	8	.
COc1ccc(N(C)S(=O)(=O)c2ccc(Cl)c(C(=O)NCCc3ccc(Cl)cc3)c2)cc1	2.3	15	2	34	-19	-8
COc1ccc(-c2noc(=O)n2CC(=O)N2CCC(Cc3ccccc3)CC2)cc1	1.9	0	-7	3	3	-52
Cc1cc(C)n(-c2ncnc3c2oc2ccccc23)n1	-0.1	7	-1	4	0	29
O=C(NC(=O)c1ccccc1Cl)C(=O)Nc1ccc(Cl)cc1	1.8	-11	-6	?	2	14
CCCCn1ccc(O)c(Cc2ccc(F)cc2)c1=O	-0.9	-1	-39	8	-4	1
Cc1ccc(C(=O)Nc2cc(-c3ccn[nH]3)c(C)n(N)c2=O)cc1	0.1	14	-21	8	-12	-22
O=C(Nc1cccc(NC(=O)c2ccc(-c3ccc(Br)cc3)o2)c1)c1ccccc1	-0.4	3	-16	11	9	4
COc1ccc(N=C(N)SCc2ccccn2)cc1	?	-30	-9	-13	-14	-12

Seven entries already listed, arranged by the number in CtBP-E1A blk, rising:
SMILES,Six1-Eya2 blk,D2 PAM,TRPML1 blocker,CtBP-E1A blk
COc1cccc(NC(=S)/C(=C(\[O-])c2cc(C)n(-c3ccccc3F)c2C)[n+]2ccc(N(C)C)cc2)c1,-18,-5,-9,-10
CCCCC(=O)NCc1ccc(Cl)cc1,5,-6,-3,-5
Cc1ccnc(NC(=O)CCC(=O)N(CC(=O)NCCc2ccccc2)c2ccc(F)cc2)c1,0,-5,11,-3
CN(CCc1ccccn1)S(=O)(=O)c1ccc2c3c(cccc13)C(=O)N2,2,-6,-10,-2
CNc1oc(-c2ccc(F)cc2)nc1S(=O)(=O)c1ccccc1,5,-2,-6,1
N#CC1=C(N)OC2=C(C(=O)CCC2)C12C(=O)N1CCCc3cccc2c31 (configuration not stated),5,-10,10,3
Cc1[nH]c(C)c(S(=O)(=O)N2CCc3ccccc32)c1C(=O)N1CCCCC1,0,-1,20,4
